Methyltransferases = Primary Screen for Target Class Profiling of Small Molecule Inhibitors of Methyltransferases. purified enzyme, MTase-Glo SAH luminescence; active compounds read low. calls only at 40 µM. 25,000 tested, 3.9% active. AID 1745853, 2022; active = -50% or lower on at least one of six enzymes; inconclusive = the cases between; inactive = as a rule above -30% on all six;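 note: enzymes were COMT GAMT GNMT HNMT NNMT and PNMT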
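Each enzyme was reacted with SAM and its substrate, with compounds tested once at 40 uM; SAH formed was read by MTase-Glo luminescence.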
Calls only; i = inactive; u = inconclusive; + = active, no number. % is set by controls: 0 for no effect and ±100 for the full control effect. This is a subset; rates above refer to the full screens.

A first look (5 entries):
item	canonical_smiles	Methyltransferases
1	CC(C)NC(=O)c1ccc2c(=O)n(Cc3ccccc3)c3nnc(SCc4cccc(F)c4)n3c2c1	i
2	Cc1ccc(-c2n[nH]n3c2nc(=O)c2ccc(C(=O)NCCc4ccccc4)cc23)cc1	i
3	COc1cc(CNCc2ccccc2C)ccc1OCC(O)CN1CCC(O)CC1 (stereo not given)	i
4	CCOC(=O)c1cc2n(n1)CC(C)(C(=O)NC1CCCCC1)N(c1ccc(F)cc1C)C2=O (stereo not given)	i
5	O=C(CCn1ccc2cc(S(=O)(=O)N3CCCC3)ccc21)NCc1ccc(Cl)cc1	i

The list itself, from the first entry:
item	canonical_smiles	Methyltransferases
1	CC(C)NC(=O)c1ccc2c(=O)n(Cc3ccccc3)c3nnc(SCc4cccc(F)c4)n3c2c1	i
2	Cc1ccc(-c2n[nH]n3c2nc(=O)c2ccc(C(=O)NCCc4ccccc4)cc23)cc1	i
3	COc1cc(CNCc2ccccc2C)ccc1OCC(O)CN1CCC(O)CC1 (stereo not given)	i
4	CCOC(=O)c1cc2n(n1)CC(C)(C(=O)NC1CCCCC1)N(c1ccc(F)cc1C)C2=O (stereo not given)	i
5	O=C(CCn1ccc2cc(S(=O)(=O)N3CCCC3)ccc21)NCc1ccc(Cl)cc1	i
6	COc1ccc2[nH]c(CNc3cc(C4CC(N)C4)nc(C)n3)cc2c1 (stereo not given)	+
7	CCCCc1cn(CC2CCN(C(=O)c3ccsc3)CC2)nn1	i
8	CCCc1cc(N2CCC(NCc3c(F)cccc3Cl)CC2)nc(C)n1	i
9	Cc1[nH]c2ccc(F)cc2c1-c1nc2c3cccnc3c3ncccc3c2[nH]1	i
10	CC12CC34CC(O)C5C(CO)(CO)CC(=O)CC5(C)C3CC1C2C4 (stereo not given)	i
11	Cc1ccccc1CNC(=O)CNC(=O)C1(C)Cn2c(cc3ccccc32)C(=O)N1C (stereo not given)	i
12	COc1ccc(-c2cc3onc(-c4ccncc4)c3c(=O)n2C)cc1	u
13	COCCn1c(C)cnc1CCNC(=O)Cn1nc(C(F)(F)F)cc1C	i
14	COC(=O)c1ncn2c1C(=O)N(CCC1=CCCCC1)C(C)(C(=O)NCc1ccccc1)C2 (stereo not given)	i
15	COCCOCC1(CNC(=O)c2cccnc2)C[C@@H](O)[C@@H](O)C1 (stereo not given in full)	i
16	O=C1N[C@@H]2CCN(C(=O)c3ccc(-c4ccccc4)cc3)[C@@H]2C(=O)N1Cc1ccccc1	i
17	CN(CC(=O)N1CCOCC1)S(=O)(=O)c1ccc2[nH]c3c(c2c1)CCCC3	i
18	O=C(CCn1ccc2cc(S(=O)(=O)N3CCCCC3)ccc21)NCc1ccc(Cl)cc1	i
19	O=C(NC1CCN(c2ccnc3ccnn23)C1)c1cc(F)ccc1Br (stereo not given)	i
20	O=C(NC1CCOCC1)c1cccc(S(=O)(=O)N2CCC[C@H]2CO)c1	i
21	CC(C)c1nc2c(NC(=O)Nc3cccc(Cl)c3)cccn2n1	i
22	C1=C(c2cc(-c3ccncc3)cn3cncc23)CCOC1	u
23	Cc1cnc(Nc2ccc(F)cc2Cl)nc1-c1c[nH]c(C(=O)NC(CO)c2cccc(Cl)c2)c1 (stereo not given)	i
24	CC(C)[C@@H](C(=O)O)N1Cc2c(cc(O)c3c2O[C@]2(C3)[C@H](C)CCC3C(C)(C)[C@H](O)[C@H](O)C[C@@]32C)C1=O (stereo not given in full)	i
25	COc1cc(Nc2nc3c(S(=O)(=O)c4ccc(C)cc4)nnn3c3ccccc23)cc(OC)c1	i
26	CSc1ccc(CCNC(=O)CCn2ccc3cc(S(=O)(=O)N4CCCC4)ccc32)cc1	i
27	CCC(=O)N1CCc2sc(C(=O)NCCCOC)cc2C1	i
28	CC1(C(=O)NC2CCCCCCC2)Cn2c(ccc2-c2ccco2)C(=O)N1Cc1ccccc1F (stereo not given)	i
29	COc1cccc(-c2nccc3c(=O)cc(N(C)C)oc23)c1	i
30	CCCn1c(=O)c2ccccc2n2c(=O)n(CC(=O)NCc3ccc(Cl)cc3)nc12	i
31	CNC(=O)[C@@H]1CN(Cc2ccncc2)C[C@H]1COC	i
32	FC(F)c1nc2ccccc2n1-c1nc(N2CCOCC2)nc(N2CCOCC2)n1	i
33	CCOC(=O)c1cc2n(n1)CC(C)(C(=O)NC1CCCC1)N(Cc1ccc(OC)cc1)C2=O (stereo not given)	i
34	Cc1cc(N2CCCCC2)nc2ccccc12	i
35	COC[C@@H]1CN(Cc2ccco2)C[C@H]1C(=O)N(C)C	i
36	COc1cc(C2Oc3c(O)cc(CCCO)cc3C2CO)ccc1O[C@H]1O[C@H](C)[C@@H](O)[C@H](O)[C@@H]1O (stereo not given in full)	i
37	Cc1cnc(CCNC(=O)c2cccs2)n1C1CCC1	+
38	CCCn1c(=O)c2cc(Cl)ccc2n2c(SCC(=O)Nc3ccc(OC)cc3)nnc12	i
39	COCCn1c(COc2c(F)ccc(Cl)c2F)nnc1C1CC(N)C1 (stereo not given)	i
40	CC1(C(=O)NC2CCCCCC2)Cn2c(ccc2-c2ccco2)C(=O)N1Cc1ccc2c(c1)OCO2 (stereo not given)	i
41	O=C(CC1C(=O)NCCN1Cc1ccoc1)NCc1nnc2n1CCCCC2 (stereo not given)	i
42	CC(=O)O[C@@H](CO[C@@H]1O[C@H](CO)[C@H](O)[C@H](O)[C@H]1O)[C@]1(C)C=C2CC[C@@H]3C(C)(C)[C@@H](O)CC[C@@]3(C)[C@@H]2CC1	i
43	CCC(C)NC(=O)c1ccc2c(=O)n(C(C)C)c3nn(Cc4cccc(OC)c4)c(=O)n3c2c1 (stereo not given)	i
44	COc1cccc(CNC(=O)c2cc3n(n2)CC(C)(C(=O)NC2CCCC2)N(C)C3=O)c1OC (stereo not given)	i
45	CC(NC(=O)CCn1ccc2cc(S(=O)(=O)N3CCCC3)ccc21)c1ccccc1 (stereo not given)	i
46	C/C=C/c1ccc2oc(-c3ccc(O)c(OC)c3)c(C)c2c1	i
47	Cc1cnc(CCN)n1Cc1ccccc1	u
48	COCCO[C@H]1C(=O)N(C2CCN(C(=O)c3cnccn3)CC2)[C@H]1c1ccncc1	i
49	O=S(=O)(NCCn1cc(-c2cncnc2)nn1)c1ccc(Cl)cc1	i
50	CCCN(C)C(=O)Cn1c(C)ccc(NS(=O)(=O)c2ccc(C)cc2)c1=O	i

Three entries from above in a different format:
#1 CC(C)NC(=O)c1ccc2c(=O)n(Cc3ccccc3)c3nnc(SCc4cccc(F)c4)n3c2c1
  Methyltransferases = i
#49 O=S(=O)(NCCn1cc(-c2cncnc2)nn1)c1ccc(Cl)cc1
  Methyltransferases = i
#26 CSc1ccc(CCNC(=O)CCn2ccc3cc(S(=O)(=O)N4CCCC4)ccc32)cc1
  Methyltransferases = i

The list continues.
item	canonical_smiles	Methyltransferases
51	COc1cccc(C(=O)N[C@H]2[C@H](O)[C@H](O)C[C@@H]2c2cccnc2)c1	i
52	Cc1ccc(Cn2c(=O)c3ccccc3n3c(=O)n(CC(=O)Nc4ccc(C)c(C)c4)nc23)cc1	i
53	Cc1cc(C)n(Cc2ccc(C(=O)N3CCC(N4C[C@H](O)C[C@H]4C(=O)NC4CCCCC4)CC3)o2)n1	i
54	C=C1C(=O)O[C@H]2CC(=C)[C@H]3CC[C@@](C)(O)[C@@H]3CC12 (stereo not given in full)	+
55	CCCCN1C(=O)c2cc(C(=O)Nc3cc(OC)ccc3OC)nn2CC1(C)C(=O)NC1CCCC1 (stereo not given)	i
56	O=C(OC[C@@]1(O)CO[C@@H](O[C@H]2[C@H](Oc3ccc(O)cc3)O[C@H](CO)[C@@H](O)[C@@H]2O)[C@@H]1O)c1ccc(O)cc1	i
57	Cc1cc(C)cc(NC(=O)Cn2nc3n(CC(C)C)c(=O)c4ccc(C(=O)NC(C)C)cc4n3c2=O)c1	i
58	Cc1ccc(N2C(=O)c3cc(-c4ccco4)nn3CC2(C)C(=O)NC2CCCCC2)cc1 (stereo not given)	i
59	COc1ccc(C(=O)Cn2nc3n(C)c(=O)c4ccc(C(=O)NC5CCCC5)cc4n3c2=O)cc1	i
60	CCCn1c(=O)c2ccccc2n2c(=O)n(CC(=O)c3ccc(OCC)cc3)nc12	i
61	Cc1ccc(S(=O)(=O)c2nnn3c2nc(NC(C)C)c2cc(Cl)ccc23)cc1C	i
62	CCC(C)NC(=O)c1ccc2c(=O)n(CC(C)C)c3nn(CC(=O)c4cc(C)ccc4C)c(=O)n3c2c1 (stereo not given)	i
63	CCOC(=O)c1cc2n(n1)CC(C)(C(=O)NC1CCCCCC1)N(c1cc(C)cc(C)c1)C2=O (stereo not given)	i
64	Cc1ccc(NC(=O)CSc2nnc3[nH]c(=O)c(C(C)(C)C)nn23)c(C)c1	i
65	CCOC(=O)C1CCN(C(=O)CN(C)S(=O)(=O)c2ccc3c(c2)CC(C)N3C(C)=O)CC1 (stereo not given)	i
66	Cc1cccc(Cn2nc3n(C)c(=O)c4ccc(C(=O)NC5CCCCC5)cc4n3c2=O)c1	i
67	C[C@H]1CC[C@@H]2N(C1)C[C@@H]1[C@H]([C@@H](O)[C@H](O)[C@]3(O)[C@H]1C[C@@]14OC5(O)[C@@H](C[C@@H](O)[C@@H]31)[C@]4(C)CC[C@@H]5O)[C@]2(C)O	i
68	COc1ccc(C(=O)NC[C@H]2Cn3ccnc3CO2)cc1	i
69	COc1ccc(CNc2nc3c(S(=O)(=O)c4ccc(Br)cc4)nnn3c3ccccc23)cc1	i
70	COCCOCC1(CNC(=O)C2CCOCC2)C[C@@H](O)[C@@H](O)C1 (stereo not given in full)	i
71	CCC1c2ccc(C)n2CCN1C(=O)Nc1ccc(OC)cc1OC (stereo not given)	i
72	COCC1CN(C)CC12CCN(C1CCOCC1)CC2 (stereo not given)	i
73	Cc1ccc(Nc2ccn3c(=O)n(CC(=O)Nc4ccc(C)cc4C)nc3n2)cc1	i
74	CCCCN1C(=O)c2cc(C(=O)Nc3cc(F)ccc3F)nn2CC1(C)C(=O)NC1CCCC1 (stereo not given)	i
75	CC1(C(=O)NC2CCCCCC2)Cc2ccccc2C(=O)N1CCN1CCOCC1 (stereo not given)	i

Other compounds
entry | Structure | Methyltransferases
76 | O=C1CCN(C(=O)Cc2cccc(F)c2)CCCCCCN1 | i
77 | COC1CCN(CC2CCCCCN2C(=O)c2ccoc2)CC1 (stereo not given) | i
78 | CC(C)CNC(=O)c1ccc2c(=O)n(C(C)C)c3nn(CC(=O)Nc4cccc(Cl)c4)c(=O)n3c2c1 | i
79 | CC[C@@H](C)[C@@H]1OC2(C=C[C@H]1C)C[C@@H]1C[C@H](C/C=C(\C)[C@H](O[C@H]3C[C@H](OC)[C@H](O[C@H]4C[C@H](OC)[C@H](NC(C)=O)[C@H](C)O4)[C@H](C)O3)[C@H](C)/C=C/C=C3\CO[C@H]4[C@H](O)C(C)=C[C@@H](C(=O)O1)[C@@]34O)O2 (stereo not given in full) | i
80 | Cc1ccc2n1CCN(C(=O)NCc1ccccc1)C2C(C)C (stereo not given) | i
81 | O=C(/C=C/c1ccccc1)OC[C@H]1O[C@@H](OC(=O)c2cc(O)c(O)c(O)c2)[C@H](O)[C@@H](O)[C@@H]1O | +
82 | O=C(CCn1ccc2cc(S(=O)(=O)N3CCCC3)ccc21)NCc1ccccc1Br | i
83 | Cc1ccc(NS(=O)(=O)c2cc3[nH]c(=O)[nH]c3cc2C)cc1C | i
84 | CCCOc1ccc(CN2C(=O)c3cc4occc4n3CC2(C)C(=O)NC2CCCCCCC2)cc1 (stereo not given) | i
85 | O=c1n(-c2ccc(C(F)(F)F)cc2)nc2n1CCN([S+](=O)([O-])c1ccccc1)C2 | i
86 | CCOc1cccc(C2c3cccn3-c3sc4c(c3CN2C(=O)Nc2ccc(F)cc2)CCCC4)c1 (stereo not given) | i
87 | O=C(COc1ccccc1)N1C[C@@H]2C[C@H](C1)c1ccc(-c3cccc(C(F)(F)F)c3)c(=O)n1C2 | i
88 | CCCNC(=O)Cn1ccc2cc(S(=O)(=O)N3CCCCC3)ccc21 | i
89 | CCOc1ccc(CC(=O)N2CCC[C@H]2c2nc(-c3ccc(OC)cc3)no2)cc1 | i
90 | Cc1nc(C)c(C(=O)N2Cc3ccccc3C(O)C2)s1 (stereo not given) | i
91 | COc1ccc(-c2nc(-c3cc(C(F)(F)F)cc(C(F)(F)F)c3)n(Cc3ccc(C(N)=O)cc3)c2-c2ccc(OC)cc2)cc1 | +
92 | COCCN1CC(CO)C2(CCN(C3CCN(C(C)=O)CC3)CC2)C1 (stereo not given) | i
93 | Cn1c(=O)c2ccc(C(=O)NC3CCCC3)cc2n2c(SCc3ccccc3F)nnc12 | i
94 | Cc1ccc(C)c(Nc2nn3c(=O)c4ccc(C(=O)NCc5cccnc5)cc4nc3s2)c1 | i
95 | COc1cc(NC(=O)c2cc3n(n2)CC(C)(C(=O)NC2CCCCCC2)N(C)C3=O)cc(OC)c1 (stereo not given) | i
96 | COc1ccc(CNC(=O)Cn2ccc3cc(S(=O)(=O)N4CCC(C)CC4)ccc32)cc1 | i
97 | CC(C)NC(=O)c1ccc2c(=O)n(Cc3ccccc3)c3nn(CC(=O)NC(C)(C)C)c(=O)n3c2c1 | i
98 | O=C(CCc1nnc2n(Cc3ccccc3)c(=O)c3ccccc3n12)Nc1cccc(Cl)c1 | i
99 | COc1cc(N2CCC(O)CC2)ccc1Nc1cc(Nc2ccccc2S(=O)(=O)C(C)C)c2cc[nH]c2n1 | +
100 | O=C(c1cccc(OC2CN(C3CCSCC3)C2)c1)N1CCCC1 | i
101 | CCCc1nn(C)c2c(=O)[nH]c(-c3cc(S(=O)(=O)N4CCN(C)CC4)ccc3OCC)nc12 | i
102 | CC1(C(=O)NC2CCCCC2)Cn2c(ccc2-c2ccccc2)C(=O)N1Cc1cccc(F)c1 (stereo not given) | i
103 | C[C@@H]1O[C@@H](O[C@H]2[C@H](OC(C#N)c3ccc(O)cc3)O[C@H](CO)[C@@H](O)[C@@H]2O)[C@H](O)[C@H](O)[C@H]1O (stereo not given in full) | i
104 | CC(C)CCn1c(=O)c2ccccc2n2c(CCC(=O)NCCc3ccccc3)nnc12 | i
105 | CC(C)(Oc1ccc(C2CC2(Cl)Cl)cc1)C(=O)O (stereo not given) | i
106 | O=C(CCc1nnc2n(CCc3ccccc3)c(=O)c3ccccc3n12)N1CCN(c2ncccn2)CC1 | i
